UCH37 inh: inhibitors of human deubiquitinating enzyme UCH37. Q9Y5K5. purified proteasome/UCH37, Ub-AMC cleavage fluorescence. inhibition, % (no concentration beside the values). actives 0.33% (n = 330,000). AID 588478;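 active = mean of two replicates above 20%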;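 also: 0% = compound-free wells with enzyme and 100% = wells lacking proteasome; stock transfer was 100 nL into about 20 µL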
Target sequence (Q9Y5K5 whole entry, looked up): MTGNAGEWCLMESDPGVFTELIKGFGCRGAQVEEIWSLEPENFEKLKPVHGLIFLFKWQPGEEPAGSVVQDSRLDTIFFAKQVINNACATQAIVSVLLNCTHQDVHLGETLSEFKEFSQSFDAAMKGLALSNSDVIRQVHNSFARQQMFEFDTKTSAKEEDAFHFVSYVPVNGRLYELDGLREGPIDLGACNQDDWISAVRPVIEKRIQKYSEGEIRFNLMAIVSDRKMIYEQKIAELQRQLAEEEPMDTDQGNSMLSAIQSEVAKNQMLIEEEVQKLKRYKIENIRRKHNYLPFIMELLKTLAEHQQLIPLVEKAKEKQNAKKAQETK
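Material: human UCH37 enzyme supplied as purified proteasome complex. Measure: % inhibition of Ub-AMC cleavage fluorescence. Medium: pH 7.4 Tris-HCl (50 mM) with ovalbumin, ATP-MgCl2, DTT. Times: 30 min preincubation with enzyme, 25 min cleavage at room temperature. Detection: AMC fluorescence intensity at 355/460 nm.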
A1 inh: inhibitors of the anti-apoptotic protein A1, read as caspase activation. actives 0.066% (n = 330,000). AID 2462. MEF A1-2A-BIM cells, Caspase-Glo 3/7 luminescence, 3 h; percent of clofoctol response, vehicle zero. caspase activation, % (no concentration beside the values);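 active = over half of replicate activation scores above 10%, or exactly half above 10 with the replicate mean above 10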;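 also: wells of about 30 µL received 50 nL stock; many hits fall short of the cut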
Ecoli growth: blocks Escherichia coli growth. actives 0.21% (n = 330,000). OD600, 23 h; hits give low values. AID 1053175. OD600 absorbance (no concentration beside the values);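 active = OD600 absorbance below the run mean of sample wells minus 3.6 SD, in any replicate, cut at about 0.56 in these data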;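 also: stock transfer was 300 nL into about 60 µL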
AF4-AF9 inh: blocks AF4 peptide binding to human AF9. AID 651704. inhibition, % at 10 µM. actives 0.47% (n = 350,000). AlphaScreen, biotin-AF4 peptide binding to FLAG-AF9;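 active = every replicate reaching a set inhibition limit, whatever the replicate mean, cut at about 25% in these data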;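 also: 0% = plate neutral control median and 100% = total signal loss; the record names both 10 and 1 µM as test concentration; the first replicate is given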
Target sequence (P42568 whole entry, looked up): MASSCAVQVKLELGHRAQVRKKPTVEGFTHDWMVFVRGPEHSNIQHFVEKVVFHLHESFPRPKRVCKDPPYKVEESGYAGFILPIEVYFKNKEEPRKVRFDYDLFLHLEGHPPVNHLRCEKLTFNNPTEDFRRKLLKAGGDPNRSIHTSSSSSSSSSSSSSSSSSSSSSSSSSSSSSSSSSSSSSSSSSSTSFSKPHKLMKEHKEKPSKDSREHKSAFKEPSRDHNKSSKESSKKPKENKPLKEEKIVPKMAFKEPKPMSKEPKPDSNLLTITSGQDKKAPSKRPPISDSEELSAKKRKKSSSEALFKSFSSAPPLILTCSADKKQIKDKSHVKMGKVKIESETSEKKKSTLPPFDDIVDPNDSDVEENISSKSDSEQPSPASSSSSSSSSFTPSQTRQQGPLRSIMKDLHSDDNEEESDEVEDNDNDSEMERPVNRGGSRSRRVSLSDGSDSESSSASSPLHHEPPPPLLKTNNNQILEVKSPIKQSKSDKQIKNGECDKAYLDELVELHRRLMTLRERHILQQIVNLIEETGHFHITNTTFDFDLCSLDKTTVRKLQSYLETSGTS
Ecoli rRNA inh: inhibitors of bacterial rRNA selective over humanized ribosomes | actives 1.6% (n = 350,000) | GFP signal change (wild-type ribosome), % (no concentration beside the values) | AID 720706 | E. coli WT GFP vs humanized-ribosome RFP mutants, fluorescence, 24 h; hits give low values; DMSO median 0, no signal -100;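 active = significant combined selectivity score with lowered wild-type GFP, culture density cut under 30%, mutant RFP and density less affected; inactive = any of these conditions unmet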; also: one replicate is shown; some compounds called inactive have numbers as strong as hits
FGF22 binding: shifts melting point of recombinant human FGF22; Q9HCT0; recombinant FGF22 thermal shift, SYPRO orange fluorescence; percent of sucrose octasulfate shift, DMSO zero; calls only at 9.99 µM; actives 1.5% (n = 340,000); AID 651658;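 active = melting point raised past a set limit in the mean and every replicate; three in four hits are not shown here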
Target sequence (Q9HCT0 whole entry, looked up): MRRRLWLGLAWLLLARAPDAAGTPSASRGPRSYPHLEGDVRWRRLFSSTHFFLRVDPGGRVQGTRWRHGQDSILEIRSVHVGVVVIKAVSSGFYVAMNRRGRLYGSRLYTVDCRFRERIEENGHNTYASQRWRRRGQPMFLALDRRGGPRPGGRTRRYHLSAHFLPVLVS
T cruzi inh: blocks replication of Trypanosoma cruzi; actives 1.4% (n = 300,000); inhibition, % (test concentration not listed); T. cruzi beta-gal in NIH3T3, luminescence, 90 h; AID 1885;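 active = mean inhibition across valid replicates above about 55%, limit read from the data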;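 also: signal also drops with host cell toxicity which is not excluded here; 0% = plate median of DMSO wells and 100% = zero luminescence signal; higher percent means less beta-gal luminescence so fewer parasites; stock transfer was 50 nL into about 50 µL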
Beta cell apopt: beta cell apoptosis inhibition; actives 0.8% (n = 300,000); protection from apoptosis, % (test concentration not listed); INS-1E cytokine-induced death, ATP luminescence, 48 h; percent of positive-control rescue, neutral wells zero;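 active = all replicates at 75% or more, or half of them and the mean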;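 also: 0% = cytokine-treated negative control wells and 100% = positive control rescue; higher means more ATP so stronger rescue from cytokine killing; wells of about 40 µL received 100 nL stock; the first replicate is given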
Ecoli rRNA inh OD600: recorded beside Ecoli rRNA inh, whose call it bears; OD600 change, %; measured here: OD600 growth;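 optical density of the mix in the first replicate; 0 = DMSO median and -100 = no signal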
Ecoli rRNA inh RFP: further read-out of Ecoli rRNA inh, marked with its call; RFP signal change, %; measured here: RFP humanized mutant strains;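 first replicate; 0 = DMSO median and -100 = no signal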
Active calls of the source: *; i = inactive; . = not tested or not shown.

SMILES	UCH37 inh	A1 inh	Ecoli growth	AF4-AF9 inh	Ecoli rRNA inh	Ecoli rRNA inh OD600	Ecoli rRNA inh RFP	FGF22 binding	T cruzi inh	Beta cell apopt
O=C(NCCc1ccccc1)C1CCCN1S(=O)(=O)c1ccc(Cl)cc1 (centres undefined)	4.3	0.1	0.59	2.6	2	12	-1.1	i	4	4
Cc1ccc(C(=O)Nc2ccc(N3CCN(S(C)(=O)=O)CC3)cc2)cc1	-4.5	0.1	0.65	-1.9	4	4	-0.4	i	-5	0
COc1ccc(C(=O)NNC(=O)c2cc3ccccc3cc2O)cc1	0.4	-1.5	0.61	.	-6	-12	-4.5	i	-6	1
Cc1ccc(S(=O)(=O)Nc2nc3ccc(S(=O)(=O)N4CCCC4)cc3s2)cc1	-8.1	1.4	0.72	.	.	.	.	.	3	-3
Cn1cc(CN2CCCC(CNS(=O)(=O)c3cccc4cccnc34)C2)cn1 (centres undefined)	2.6	-2.7	0.64	-1.1	7	10	-2.2	i	-8	.
Cn1ncc(C#N)c1NC(=O)C1CC(c2ccc(Cl)cc2)=NO1 (centres undefined)	4.2	0.3	0.66	.	.	.	.	.	-7	.
CCCOc1ccc(NC(=O)CC2C(=O)OCC3CCCCN32)cc1 (centres undefined)	-0.5	-0.6	0.71	0.4	.	.	.	i	.	0
O=C(COc1ccc(-c2nnco2)cc1)N1CCOCC1	1.9	-0.4	0.65	-0.5	27	14	4.5	i	.	6
O=C(Cn1ccc(C(F)(F)F)n1)N/N=C/c1ccc(N2CCOCC2)cc1	.	1.0	.	2.7	10	9	1.1	i	0	.
Cc1ccc(OCC(=O)Nc2cnn(CCCC(=O)O)c2)c([N+](=O)[O-])c1	4.2	0.3	0.69	0.1	5	9	0.3	i	4	-2
N#C/C(=C\c1ccc(F)cc1)C(=O)NC1CCS(=O)(=O)C1 (centres undefined)	-1.0	-0.5	0.69	2.9	6	10	0.2	i	-1	1
CC(C(=O)NC1CCCC1)N(C(=O)c1snc(C(N)=O)c1N)c1ccc2c(c1)OCCO2 (centres undefined)	-4.7	0.1	0.65	.	.	.	.	.	0	-11
CC(=O)c1cccc(NC(=O)CN2C(=O)c3cccnc3Oc3ccc(Cl)cc32)c1	-1.4	0.9	0.66	0.2	-10	-13	6.2	i	2	0
CN(C)c1ccnc2sc(C(=O)c3ccc(Br)cc3)c(N)c12	-1.4	-0.5	0.67	0.0	16	16	1.3	i	37	5
Cc1nc2cc(NC(=O)Nc3ccccc3Cl)ccc2n1C	1.2	-9.9	0.7	-1.5	12	-19	0.1	i	11	19
COC(=O)CCCC1=CC2=CC(=O)C(C)(OC(=O)c3cccs3)C(=O)C2=CN1c1ccccc1 (centres undefined)	3.3	-0.2	0.69	3.2	6	8	10	i	8	-7
O=C(NCc1ccccn1)c1ccc(Cl)c(S(=O)(=O)N2CCOCC2)c1	1.3	-0.5	0.68	-3.0	11	11	0.4	i	-1	1
C=CCCN([C@@H](C)C(=O)OC)S(=O)(=O)c1ccccc1Br	1.4	0.9	.	-3.1	-1	2	-2.6	i	3	3
CC(C)CC(c1nnnn1Cc1ccc(F)cc1)N1CCC(C(N)=O)CC1 (centres undefined)	0.5	0.6	0.65	1.4	2	-4	-1.6	i	-16	-9
CCN(Cc1cc(=O)n2ccsc2n1)Cc1nc2ccccc2c(=O)[nH]1	-90	-0.4	0.66	0.3	5	7	3.4	i	-4	-4
O=C(O)c1cn(-c2ccccc2)nc1-c1ccc(Cl)cc1	5.4	0.4	0.69	.	-4	-3	0.2	.	-11	-1
CCOC(=O)Cn1c(C)cc(=O)c2ccccc21	4.1	2.5	0.7	0.1	.	.	.	.	-9	-2
O=C(COc1ccccc1[N+](=O)[O-])Nc1ccc(Br)cc1	3.1	-0.5	0.73	-13	8	2	-4.1	i	.	-2
S=C1SCN(Cc2ccccn2)CN1Cc1ccco1	2.3	0.3	0.52*	.	.	.	.	.	.	-11
O=C(Cc1ccccc1)Nc1ccc(NC(=O)c2cccnc2)cc1	1.2	1.0	0.69	5.1	2	8	0.4	i	-6	0
Cc1cc(C)cc(C(=O)O/N=C(\N)c2ccc(Br)cc2)c1	-0.1	0.0	0.67	.	.	.	.	.	35	8
O=C(Nc1ccc(C(F)(F)F)cc1)c1ccc2ncsc2c1	-0.8	0.1	0.65	-4.1	-28	-27	-9.8	i	-6	6
O=C(Cn1c(=O)n(CC2CCCO2)c(=O)c2ccccc21)N1CCN(c2ccccc2)CC1 (centres undefined)	1.9	0.4	0.69	.	.	.	.	.	.	-2
Cc1cccc(N(CC(=O)NC(C)(C)C)C(=O)CNC(=O)c2cccs2)c1C	2.7	0.2	0.7	-3.2	9	12	2.1	i	-3	-1
Cc1c(N(C)S(=O)(=O)c2ccc(Cl)c(C(=O)N3CCC(C(N)=O)CC3)c2)c(=O)n(-c2ccccc2)n1C	-1.5	1.1	0.7	-19	5	16	1.1	i	-12	-7

Shown in markdown: 4 of the compounds above
| compound | UCH37 inh | A1 inh | Ecoli growth | AF4-AF9 inh | Ecoli rRNA inh | Ecoli rRNA inh OD600 | Ecoli rRNA inh RFP | FGF22 binding | T cruzi inh | Beta cell apopt |
| --- | --- | --- | --- | --- | --- | --- | --- | --- | --- | --- |
| O=C(NCc1ccccn1)c1ccc(Cl)c(S(=O)(=O)N2CCOCC2)c1 | 1.3 | -0.5 | 0.68 | -3.0 | 11 | 11 | 0.4 | i | -1 | 1 |
| O=C(COc1ccccc1[N+](=O)[O-])Nc1ccc(Br)cc1 | 3.1 | -0.5 | 0.73 | -13 | 8 | 2 | -4.1 | i | . | -2 |
| CC(C)CC(c1nnnn1Cc1ccc(F)cc1)N1CCC(C(N)=O)CC1 (centres undefined) | 0.5 | 0.6 | 0.65 | 1.4 | 2 | -4 | -1.6 | i | -16 | -9 |
| O=C(Cn1c(=O)n(CC2CCCO2)c(=O)c2ccccc21)N1CCN(c2ccccc2)CC1 (centres undefined) | 1.9 | 0.4 | 0.69 | . | . | . | . | . | . | -2 |

Continuation.
SMILES	UCH37 inh	A1 inh	Ecoli growth	AF4-AF9 inh	Ecoli rRNA inh	Ecoli rRNA inh OD600	Ecoli rRNA inh RFP	FGF22 binding	T cruzi inh	Beta cell apopt
O=C(COc1ccccc1Cl)NC(=O)NC1CCCC1	2.9	0.5	0.62	.	.	.	.	.	.	4
COc1ccc(-c2nc3scc(-c4ccccc4)n3n2)cc1	-0.3	0.3	0.72	.	.	.	.	.	-17	-5
Cc1ccc(NS(=O)(=O)c2ccc3c(c2)NC(=O)CO3)cc1C	-0.8	.	0.7	1.6	0	-2	0.4	i	-12	.
COc1ccc(/C=C/C(=O)O)cc1S(=O)(=O)N1CCC(C)CC1	0.6	0.9	0.65	-3.0	10	4	1.1	i	4	-2
O=[N+]([O-])c1cccc(CSc2nc3ccccc3[nH]2)c1	5.8	-0.8	0.63	.	.	.	.	.	14	4
S=c1[nH]nc(-c2cccs2)n1/N=C/c1cccs1	.	-0.5	.	-1.5	-16	-17	-1.9	i	4	-1
C=CCN(c1cccc(C(F)(F)F)c1)S(=O)(=O)c1cccc(C(=O)OCC(=O)Nc2ccccc2)c1	0.4	0.0	0.71	-2.5	-3	-17	-12	i	-11	-4
O=C1CC(c2ccccc2)CN1C(=O)c1ccccc1 (centres undefined)	2.3	0.7	0.73	.	.	.	.	.	18	1
CCOC(=O)Nc1c2ccccc2nc2ccccc12	i	0.7	0.65	6.7	-8	-7	-4.8	i	18	18
Cc1cc(OC(=O)c2cc(Cl)nc3ccccc23)ccc1Cl	1.1	-0.3	0.75	.	.	.	.	.	-10	-5
CC(C)CCNC(=O)c1ccc(-n2cnc3cccnc32)cc1	-0.6	-0.3	0.65	2.8	-7	0	-1.5	i	-6	-13
CNC(=O)COC(=O)/C=C/c1ccc(F)cc1	2.6	-0.7	0.71	-0.6	15	16	2.2	.	-17	-7
CCCCC1CC1C(=O)Nc1ccc(OC)c(OC)c1 (centres undefined)	3.3	-0.5	0.69	.	.	.	.	.	17	3
O=C(CCc1nnc2n(Cc3ccc(Cl)cc3)c(=O)c3ccccc3n12)NCCN1CCCC1	0.4	0.4	0.65	1.9	0	-4	5.0	i	14	-4
CC(C)C(=O)N(Cc1ccccc1)c1ccccn1	2.9	-0.3	0.68	.	.	.	.	.	-14	-4

Just Ecoli rRNA inh RFP and T cruzi inh, for some of the entries so far:
| SMILES | Ecoli rRNA inh RFP | T cruzi inh |
| --- | --- | --- |
| Cc1ccc(C(=O)Nc2ccc(N3CCN(S(C)(=O)=O)CC3)cc2)cc1 | -0.4 | -5 |
| COc1ccc(C(=O)NNC(=O)c2cc3ccccc3cc2O)cc1 | -4.5 | -6 |

The list continues:
SMILES	UCH37 inh	A1 inh	Ecoli growth	AF4-AF9 inh	Ecoli rRNA inh	Ecoli rRNA inh OD600	Ecoli rRNA inh RFP	FGF22 binding	T cruzi inh	Beta cell apopt
C=CCN1C(=O)C2C(C(=O)NC3CCCC3)C3C=CC2(O3)C1C(=O)NC1CCCC1 (centres undefined)	-0.6	0.4	0.69	1.4	9	24	-1.3	i	-5	-2
COc1ccc(OC)c(NC(=O)COc2coc(CN3CCc4ccccc43)cc2=O)c1	-0.6	-0.4	0.65	1.4	8	8	1.3	i	1	16
CC(=O)Cc1nsc(NC(=O)c2ccc(-c3ccc(Cl)cc3Cl)o2)n1	-16	0.9	0.68	.	.	.	.	.	-18	-2
COc1ccc(NC(=O)CN(C)C(=O)CC2CCCC2)cc1	2.1	0.3	0.65	3.9	3	2	-3.1	i	6	-3
O=C(CSc1nnc(CCc2nc3ccccc3[nH]2)n1-c1ccccc1)NCc1ccco1	1.1	1.2	0.68	.	.	.	.	.	0	1
COc1cc(S(=O)(=O)NCc2ccc(F)cc2)ccc1-n1cnnn1	1.3	0.9	0.71	-0.2	0	0	-2.9	i	0	-5
COc1ccc(C(C)NC(=O)c2ccccc2)cc1 (centres undefined)	1.7	-0.2	0.59	.	.	.	.	.	-19	-1
Cc1cccc(NS(=O)(=O)c2cc3c(cc2C)n(C)c(=O)c(=O)n3C)c1	4.6	0.6	0.74	0.3	-1	6	-1.1	i	-1	6
CCOC(=O)C1(CC2CCCCO2)CCN(Cc2nc(-c3cccs3)oc2C)CC1 (centres undefined)	-5.3	0.1	0.7	0.6	-4	-6	-4.1	i	19	-4
COc1ccc2ccc(O)c(CN(C)CC(=O)Nc3ccccc3C(F)(F)F)c2c1	1.3	0.1	0.64	2.7	-2	0	-1.9	i	-2	-2
COc1ccc(CSc2nc3ccccc3c(=O)[nH]2)cc1F	-0.4	0.7	0.7	-1.9	14	10	2.6	i	0	-3
CCN(C(=O)CN1C(=O)/C(=C/c2ccc(F)cc2)SC1=S)C1CCS(=O)(=O)C1 (centres undefined)	8.9	1.5	0.68	-0.2	5	14	-3.6	i	3	-5
Cc1ccc(S(=O)(=O)N(C)c2ccc(C(=O)Nc3cccc(C)n3)cc2)cc1	3.2	-0.8	0.69	-1.3	-28	-14	-4.8	i	35	.
CC1CCN(c2ccc3c(c2)S(=O)(=O)c2cccc(C(=O)NC4CC4)c2C3=O)CC1	6.3	0.7	0.71	-0.7	12	7	14	i	.	-1
CN1CCN(c2ccc(NC(=O)c3cc(S(N)(=O)=O)ccc3N3CCOCC3)cc2)CC1	3.3	0.7	0.67	9.6	8	10	2.4	i	.	-2

Only part of the results is shown, so the mix of outcomes need not match the whole.
